Compound activity from PubChem BioAssay.
Resorufin autofl: qHTS Assay for Spectroscopic Profiling in Resorufin Spectral Region; Compound fluorescence, resorufin region 547/598 nm, buffer; stronger effect = higher value; AID 588, 2007; hit rate 0.04% among 59,000; max dye-equivalent concentration, M; active = above 10 nM dye equivalent; inconclusive = 1 to 10 nM; inactive = 1 nM or less; a few of its hits are not listed in these tables; also: highest value over a series up to 38 µM
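Compounds in 100 mM Tris buffer, pH 8.0, incubated 15 min at room temperature, then read with 547 nm excitation and 598 nm emission filters. Fluorescence was converted to dye-equivalent concentration using an on-plate six-point resorufin standard curve.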
A647 autofl: qHTS Assay for Spectroscopic Profiling in A647 Spectral Region; Compound fluorescence, A647 channel (570/671 nm), Tris buffer; max dye-equivalent concentration, M; 59,000 tested, under 10 active; AID 592, 2007; active means above 1 µM dye equivalent; inconclusive means 0.1 to 1 µM; inactive means 0.1 µM or less;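 also: values scaled relative to a standard on each plate; highest value over a series up to 38 µM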
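Compound fluorescence was measured in 100 mM Tris buffer, pH 8.0, after 15 min at room temperature, using 570 nm excitation and 671 nm emission filters. Signal was normalized to a per-plate Alexa 647 standard curve and expressed as dye-equivalent concentration at each compound concentration.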
AID923: qHTS Assay for Allosteric/Competitive Inhibitors of Caspase-1: Spectroscopic Profiling in AFC Spectral Region | compound fluorescence, AFC spectral region (405/520 nm); almost no hit is shown here | Potency, µM (top dose mostly 57.5 µM), inactives show top-dose fluorescence increase, hits mostly activators | hit rate 1.1% among 75,000; active = well fitted activation curve with a large enough effect; inconclusive = small, poorly fitted or top-dose-only effect;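 also: potency is read from the fitted curve at half-maximal effect; 0% is about no effect; scaled to a free AFC standard on each plate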
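Baseline compound fluorescence (AFC region, 405 nm ex/520 nm em) taken from the intercept of kinetic reads with 50 nM caspase-1 and 5 uM Ac-WEHD-AFC; normalized to an on-plate AFC standard curve; compounds titrated up to 57 uM.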
TSHR ag: qHTS Assay for Agonists of the Thyroid Stimulating Hormone Receptor; Potency, µM (highest dose often 57.1 µM), without a hit: at the top dose activation, hits mostly activators; hit rate 0.48% among 73,000; AID 926, 2007; HEK293-CNG-TSHR cells (CNG channel as cAMP sensor), membrane potential dye, cAMP; active = well fitted activation curve of enough size with the parental cells flat; inconclusive = any curve in the parental cells; inactive = parental cells flat and receptor cells flat or falling; also: potency is read from the fitted curve at half-maximal effect; % of control where 0% means no effect; weak receptor curves with flat parental cells got no call and are not listed
Target sequence (P16473 whole entry, looked up): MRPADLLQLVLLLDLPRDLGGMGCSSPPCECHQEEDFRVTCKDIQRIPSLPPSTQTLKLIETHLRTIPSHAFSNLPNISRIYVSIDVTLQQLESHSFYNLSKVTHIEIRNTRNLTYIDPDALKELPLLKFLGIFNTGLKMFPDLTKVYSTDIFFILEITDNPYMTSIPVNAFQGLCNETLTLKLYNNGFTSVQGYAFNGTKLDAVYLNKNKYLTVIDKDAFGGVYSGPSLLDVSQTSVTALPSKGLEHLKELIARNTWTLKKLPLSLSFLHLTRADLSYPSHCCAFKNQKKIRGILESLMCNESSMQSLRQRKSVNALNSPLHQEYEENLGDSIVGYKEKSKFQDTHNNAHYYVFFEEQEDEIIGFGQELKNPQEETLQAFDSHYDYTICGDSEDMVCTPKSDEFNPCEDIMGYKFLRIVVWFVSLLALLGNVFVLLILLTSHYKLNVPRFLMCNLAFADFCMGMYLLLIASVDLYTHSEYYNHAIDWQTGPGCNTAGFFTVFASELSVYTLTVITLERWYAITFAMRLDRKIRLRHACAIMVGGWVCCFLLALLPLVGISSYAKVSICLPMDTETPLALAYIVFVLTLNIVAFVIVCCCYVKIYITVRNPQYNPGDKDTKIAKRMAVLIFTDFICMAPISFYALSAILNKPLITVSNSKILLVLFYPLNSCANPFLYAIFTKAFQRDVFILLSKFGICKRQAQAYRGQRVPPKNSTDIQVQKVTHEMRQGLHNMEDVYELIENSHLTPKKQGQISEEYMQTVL
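HEK 293 cells stably expressing TSHR and a modified CNG channel, with CNG-only parental cells as counterscreen, were preloaded 60 min at room temperature with membrane potential dye containing 100 uM RO 20-1724. Compound exposure was 30 min, and depolarization was read as fluorescence at 590 nm.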
A488 autofl: qHTS Assay for Spectroscopic Profiling in A488 Spectral Region; compound autofluorescence, A488 spectral region, dye equivalency; stronger effect = higher value; max dye equivalency, M; hit rate 0.1% among 59,000; active = above 10 nM dye equivalent; inconclusive = 1 to 10 nM; inactive = 1 nM or less; about half of its hits are not listed in these tables;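 also: highest value over a series up to 38 µM; compound alone in buffer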
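Compounds pin-transferred into 100 mM Tris buffer, pH 8.0, incubated 15 min at room temperature, then imaged with 480 nm excitation/540 nm emission filters. Fluorescence converted to Alexa 488 dye-equivalent concentration via an on-plate six-point A488 standard curve.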
Starred values were filed as active, the others as inactive; i = inactive; ? = inconclusive; nt = not tested or not shown; [ ] = dose if it differs, or a comment. This is a subset. The share of hits here may be higher or lower than overall.

SMILES	Resorufin autofl	A647 autofl	AID923	TSHR ag	A488 autofl
COc1ccc(OC)c(C(c2nnnn2Cc2ccccc2)N2CCN(C3CCCCC3)CC2)c1 (centres undefined)	i	1e-09	0.7%	-13%	i
Cc1cc(C)c(C#N)c(SCC(O)CS(=O)(=O)Cc2ccccc2)n1 (centres undefined)	i	5.1e-09	2.2%	14%	i
CCc1nc(NCC2CCCO2)c2oc3ccccc3c2n1 (centres undefined)	i	2.2e-08	-1.4%	24%	i
Cc1[nH]c2ccccc2c1SCC(=O)N1CCOCC1	nt	nt	6.0%	?	nt
Cc1cc(C(=O)CSc2n[nH]c(N)n2)c(C)n1-c1cc(F)ccc1F	i	4.1e-08	0.7%	22%	i
c1ccc2c(-c3nc4ncccc4o3)cccc2c1	i	1e-09	-0.6%	20%	i
COC(=O)c1nc(C(=O)OC)c(C(=O)OC)nc1C(=O)OC	i	7.5e-09	-1.1%	1%	i
CC1(C)Oc2ccc3ccc(=O)oc3c2/C(=C/Nc2ccccn2)C1=O	nt	nt	-0.8%	7%	nt
O=C(Nc1ccc(CCC(=O)N2CCCC2)cc1)c1ncn[nH]1	i	5.2e-08	2.2%	-2%	i
Cc1cnc(NC(=O)CSc2nnc(-c3ccccc3)n2Cc2ccccc2)s1	i	1.1e-08	-0.8%	?	i
COc1ccc(CCNS(=O)(=O)c2ccc3c(c2)OCCO3)cc1OC	nt	nt	1.5%	19%	nt
Cc1csc(SC(C)C(=O)Nc2ccc(S(=O)(=O)N3CCCC3)cc2)n1 (centres undefined)	i	1.5e-09	-0.7%	0%	i

As a short view, some entries already given.
SMILES	Resorufin autofl	A647 autofl	AID923	TSHR ag	A488 autofl
CC1(C)Oc2ccc3ccc(=O)oc3c2/C(=C/Nc2ccccn2)C1=O	nt	nt	-0.8%	7%	nt
O=C(Nc1ccc(CCC(=O)N2CCCC2)cc1)c1ncn[nH]1	i	5.2e-08	2.2%	-2%	i
Cc1cnc(NC(=O)CSc2nnc(-c3ccccc3)n2Cc2ccccc2)s1	i	1.1e-08	-0.8%	?	i
COc1ccc(CCNS(=O)(=O)c2ccc3c(c2)OCCO3)cc1OC	nt	nt	1.5%	19%	nt
Cc1csc(SC(C)C(=O)Nc2ccc(S(=O)(=O)N3CCCC3)cc2)n1 (centres undefined)	i	1.5e-09	-0.7%	0%	i

Following part:
SMILES	Resorufin autofl	A647 autofl	AID923	TSHR ag	A488 autofl
CCn1c2c(c3ccc(OC)cc31)CCCC2=O	i	3.2e-08	0.7%	21%	i
O=C(OCc1nc2ccccc2s1)c1cccc(S(=O)(=O)N2CCOCC2)c1	i	4.9e-08	-0.8%	-3%	i
CCOC(=O)c1sc(NC(=O)c2ccc(S(=O)(=O)N3CCOCC3)cc2)cc1C	i	1.2e-09	5.9%	6%	i
CSc1nnc(-c2sc3cc(Cl)ccc3c2Cl)n1C	i	4.8e-09	0.8%	7%	i
CCOC(=O)CC12CN3CN(C1)CC(CC(=O)OCC)(C3)C2=O	i	1e-09	0.7%	-5%	i
CN(Cc1ccccc1)Cc1nc2c(c(=O)n(C)c(=O)n2C)n1CCc1ccccc1	i	2.3e-08	-0.7%	?	i
COc1ccc2c(=O)c3c(=O)n(Cc4ccco4)c(-c4ccc(C)cc4)nc3oc2c1	i	5.2e-09	0.9%	27%	i
CS(=O)(=O)N(CC(=O)NCc1ccncc1)c1cc(Cl)cc(Cl)c1	nt	nt	-1.1%	13%	nt
CCCn1c(SCC(=O)N2CCc3ccccc32)nnc1-c1ccco1	i	4.7e-08	2.2%	?	i
CCOC(=O)c1ccccc1NC(=O)CC1SC(=NC)N(C)C1=O (centres undefined)	i	2.7e-08	0.3%	?	i
CC(=O)Nc1ccc(S(=O)(=O)N(CC(=O)O)Cc2ccccc2)cc1	nt	nt	-0.3%	4%	nt
Cc1nn(-c2ccccc2)c(C)c1C(=O)OCC(=O)NC(=O)NC1CCCCC1	i	5.6e-09	0.2%	15%	i
CCOC(=O)COc1ccc2c(c1)C(=O)CC(C)(C)O2	i	1.4e-08	14%	-8%	i
CCOCCCNC(=O)CCNS(=O)(=O)c1ccc(C)cc1	i	2e-08	0.0%	28%	i
Cc1ccc2oc(=O)c3cnn(CC(=O)NC4CCCCC4C)c3c2c1 (centres undefined)	nt	nt	-0.8%	?	nt
c1csc(-c2noc(COc3ccc4c(c3)CCCC4)n2)c1	i	5.4e-08	2.2%	25%	i
CCC(=O)Nc1ncnc2ncn(C(=O)CC)c12	i	1.8e-08	0.5%[11.5 µM]	-3%[11.4 µM]	i
CCCOc1ccc(C(=O)NCCC(=O)NCCCC(=O)OCC)cc1	nt	nt	-1.0%	1%	nt
Cc1cc(C(=O)COC(=O)CCC(=O)c2ccc3c(c2)OCCO3)c(C)n1Cc1ccco1	i	5.2e-08	1.3%	5%	i
O=C(CSc1nc2ccccc2o1)NCc1ccc2c(c1)OCO2	nt	nt	2.2%	17%	nt
O=C(CSc1nnc(Cc2cccs2)n1-c1ccccc1)NC1CCCCC1	i	2.9e-09	9.5%	?	i
CCCN1CCN(CCCNC(=O)Cn2nc(-c3ccc(Cl)cc3)ccc2=O)CC1	i	1.3e-09	2.3%	4%	i
O=S(=O)(c1ccc(Cl)cc1)N1CCN(c2ccc(N3CCOCC3)nn2)CC1	i	1e-09	0.9%	-13%	i
CN(c1ccc(Cl)cc1)c1cc(=O)n(C)c2ccccc12	i	2.3e-09	0.6%	?	i
O=C(NC(NC1CCS(=O)(=O)C1)C(=O)c1cccs1)c1ccccc1 (centres undefined)	i	1.3e-08	-1.5%	2%	i
CCOC(=O)/C(C#N)=C(\N)C(C)C(=O)Nc1ccccn1 (centres undefined)	i	1.7e-08	-0.1%	4%	i
CCOc1ccc(-n2c(=O)cc(N3CCN(c4ccc(F)cc4)CC3)[nH]c2=O)cc1	i	1e-09	-0.3%	8%	i
c1coc(CNc2c3c(nc4ncnn24)CCC3)c1	i	2.9e-09	0.9%	?	i
O=C(c1ccncc1)N1CCC2(CCCN(c3ccccn3)C2)CC1	i	2.2e-09	1.7%	?	i
Cc1ccc(S(=O)(=O)N2CC3CCC2C3)cc1 (centres undefined)	i	2.5e-08	-0.6%	14%	i
COC(=O)C1=C(C)NC(C)=C(C(=O)OCCN(C)Cc2ccccc2)[C@H]1c1cccc([N+](=O)[O-])c1	i	2.4e-09	-1.6%[25.7 µM]	nt	i
CC[C@@H]1Cc2cc(O)ccc2C2=C1c1ccc(O)cc1C[C@H]2CC	i	1e-09	-2.0%	?	i
CC(=O)c1cccc(NC(=O)c2cc(-c3ccc(C)cc3)on2)c1	i	1.7e-09	0.5%	-16%	i
COc1cc2c(cc1OC)C(=NCCC(=O)O)NC(C)(C)C2	i	1e-08	-0.4%	-2%	i
COc1ccccc1-c1c(C)nn2c(N3CCC4(CC3)OCCO4)cc(C)nc12	i	1.8e-08	-3.5%	nt	i
Cn1c(C(=O)NCc2cccnc2)cc2sc(Cl)cc21	nt	nt	-0.7%	?	nt
Cc1cc(=O)oc(C)c1C(=O)NCCCN1CCN(c2ccccc2F)CC1	i	1.2e-08	0.1%	23%	i
Oc1ccccc1NCC(O)Cn1ccc2ccccc21 (centres undefined)	i	1e-09	0.3%	?	i
Cc1ccccc1NC(=O)NCCc1nc2ccccc2[nH]1	i	2e-09	nt	nt	i
COc1ccc(NC2CC(=O)N(c3ccccc3)C2=O)cc1 (centres undefined)	i	1e-09	2.8%	2%	i
COc1cc2c(C(=O)N3CCN(Cc4ccc5c(c4)OCO5)CC3)cn(C)c(=O)c2cc1OC	i	1.3e-08	1.0%	14%	i
CCn1c2ccccc2c2nnc(SCCCn3c(=O)[nH]c4ccccc43)nc21	nt	nt	-1.4%	8%[11.4 µM]	nt
O=C(CCc1n[nH]c(=O)[nH]c1=O)N1CCCCC1	nt	nt	4.0%	-3%	nt
COc1ccc(CNC(=O)c2cnc3scc(C)n3c2=O)cc1	nt	nt	2.9%	0%[11.4 µM]	nt
O=C(Nc1ccccc1C(=O)NC1CCCC1)NC1CCCC1	i	3e-09	0.8%	0%	i
O=C(CCNC(=O)c1ccc(Br)o1)NCc1ccccn1	i	4.1e-09	3.5%	-8%	i
Cc1ccc2nc(SCC(=O)O)nc(C)c2c1	i	1e-09	-0.3%	-7%	i
CC1(C)CC(=O)N(CC(=O)O)c2ccccc2S1(=O)=O	nt	nt	4.4%	-2%	nt
COC(=O)Nc1nn(Cc2ccccc2F)cc1Br	i	1e-09	-0.1%	-9%	i
O=C(c1ccncc1)N(Cc1ccccc1)Cc1nc2ccccc2c(=O)[nH]1	i	1e-09	0.1%	1%	i
NC(=O)c1oc2ccccc2c1NC(=O)CN1CCCCC1	i	3e-08	6.7%	6%	i
Cc1cccn2c(=O)c3cc(C(=O)N4COCC4(C)C)n(C)c3nc12	i	1.3e-09	7.3%	6%	i
COC(=O)CC1SC(=O)NC1=Nc1ccccc1 (centres undefined)	nt	nt	4.1%	12%	nt
Cc1c(NC(=O)NCCN2C(=O)C3C4C=CC(C4)C3C2=O)c(=O)n(-c2ccccc2)n1C (centres undefined)	nt	nt	-1.3%	-9%	nt
O=C(CCCNS(=O)(=O)c1cccs1)N1CCN(c2cccc(Cl)c2)CC1	i	1e-09	0.8%	20%	i
NC(=O)Cn1c(=O)oc2ccccc21	i	1e-09	0.1%	-2%	i
CCCC(=O)N(c1ccc2oc(=O)sc2c1)S(=O)(=O)c1cccs1	i	4.3e-08	1.3%	-9%[11.4 µM]	i
COC(=O)c1cc2c(C)nn(-c3ccccc3)c2s1	i	1e-09	0.7%	16%	i
CCOC(=O)COc1ccc2nsnc2c1Cl	i	5e-08	13%	13%	i
O=C(O)c1cccc(Cn2cccn2)c1	i	1.3e-08	1.2%	2%	i

Remaining list, next part.
SMILES	Resorufin autofl	A647 autofl	AID923	TSHR ag	A488 autofl
CN(Cc1ccco1)c1ccnc(-c2ccccc2C(F)(F)F)n1	i	2.5e-08	-2.0%	8%	i
COC(=O)c1ccccc1NC(=O)CCNC(=O)Cn1cnc2ccccc2c1=O	i	1.1e-08	1.2%	6%	i
Cc1cc(NC(=O)CSc2nc(-c3ccc(F)cc3)cs2)no1	i	3.4e-08	0.1%	5%	i
O=C(CN1C(=O)c2ccccc2C1=O)NCC1CCCO1 (centres undefined)	nt	nt	-1.1%	5%	nt
CCOc1ccc(NCC2CCOC(C)(C)C2)cc1 (centres undefined)	i	2.4e-09	0.5%	13%	i
CCOC(=O)N1CCN(c2nc(-c3ccc(Cl)cc3)cs2)CC1	nt	nt	3.3%	?	nt
CC(C)(C)NC(=O)CSc1nncn1NCc1ccccc1	i	1.9e-09	-0.7%	3%	i
